# VACV mCherry inh: inhibitors of vaccinia virus infection (mCherry reporter signal). Vaccinia virus mCherry reporter infection, fluorescence; about a quarter of the inactives have no number. Potency, µM (highest dose often 36.5 µM), inactives show at the highest dose activity change, negative = inhibition, hits mostly inhibitors. 310,000 tested, 0.63% active. AID 720579; active = well fitted inhibition curve with a large enough effect; inconclusive = small, poorly fitted or top-dose-only effect; inactive = no such curve, though single readings can be large or run the other way; tested in A549 cells; also: nearly all actives have a fitted effect of over 35% in size; inactives centre near -10
# Vaccinia Venus: inhibitors of vaccinia virus (Venus reporter) | Vaccinia virus Venus reporter expression, fluorescence | Potency, µM (titrated, usually from 36.5 µM), for the others: at the top dose activity change, negative = inhibition, usual class: inhibitors | 330,000 tested, 0.46% active; active means well fitted inhibition curve with a large enough effect; inconclusive means small, poorly fitted or top-dose-only effect; inactive means no such curve, though single readings can be large or run the other way; tested in A549 cells; also: nearly all actives have a fitted effect of over 30% in size; inactives centre near -10
# * marks the source's active call; other numbers are inactive results; i = inactive; ? = inconclusive; . = no result given; & = joins results of further samples; [ ] = dose if it differs, or a comment. % is scaled to controls: 0 for no effect and ±100 for the full control effect; potency is read from the fitted curve at half-maximal effect.
structure	VACV mCherry inh	Vaccinia Venus
COc1ccc(CNC(=O)Cc2c(C)c3ccc(O)cc3oc2=O)cc1	-11%	-14%
COc1ccc(/C=C2\NC(=S)N(CC3CCCO3)C2=O)c(OC)c1 (configuration not stated)	-7%	-8%
O=C(/C=C/c1ccc2ccccc2n1)c1cc(Cl)ccc1O	-7%	7%
COc1ccc(-c2nc(CSc3nnc(C)n4c3cc3sccc34)c(C)o2)cc1	-5%	-3%
OCCNC(=S)Nc1ccc(Cl)c(Cl)c1	?	-24%
CCC(C)NC(=O)CO/N=C/c1ccc(C(=O)OC)cc1 (configuration not stated)	-12%	-10%
COc1ccc(/C=C2\SC(=O)N(CC(=O)NN3CCN(C)CC3)C2=O)cc1OC	i	-12%
COC(=O)/C=C/c1ccsc1NC(C)=O	-4%	-6%
COc1ccc(-c2cnc(C)o2)cc1S(=O)(=O)Nc1cccc(C(F)(F)F)c1	-14%	-21%
c1ccc2c(N3CCCC3)nc(-c3ccncc3)nc2c1	.	?
Cc1cc(Cl)ccc1OC(C)C(=O)N1CCCN(C(=O)C(C)Oc2ccc(Cl)cc2C)CC1 (configuration not stated)	?	?
CN(C)c1ccc(-c2nc3ccccn3c2/N=C/c2ccc(Br)cc2)cc1	-20%	-10%
CC1CCC(NC(=O)Cn2ncc3ccccc32)CC1 (configuration not stated)	17%	-2%
COCCn1c(C)cc(C(=O)CSc2nc3nc(C)cc(C)n3n2)c1C	i	-13%
CCC(=O)c1c[nH]c(C(=O)N2CCN(c3ccccc3)CC2)c1	i	-16%
O=c1cc(N2CCOCC2)[nH]c(=O)n1Cc1ccc(F)cc1	i	-2%
CSc1c(CC(=O)Nc2ccccc2C(F)(F)F)n(Cc2ccccc2)c2ccccc12	-17%	-6%
CCOc1ccc(C2C(C(=O)Nc3ccccc3)=C(C)Nc3nc(SCc4cccc(OC)c4)nn32)cc1 (configuration not stated)	7%	9%
CCc1ccc(-c2cc3c(N4CCN(c5ccccc5)CC4)nccn3n2)cc1	-11%	-18%
c1ccc2sc(-c3ccncc3)nc2c1	i	-14%
CCCCCCCNC(=O)c1ccc(N2CCC3(CC2)OCCO3)c([N+](=O)[O-])c1	-10%	-15%
Cc1ccccc1Nc1nn2c(=O)c3ccc(C(=O)NCCc4ccc(Cl)cc4)cc3nc2s1	?	-25%
Cc1ccc(C)c(Cn2c(=O)n(CCc3ccccc3)c(=O)c3c(C)c(C)sc32)c1	0%	7%
COc1ccc(S(=O)(=O)N2CCN(C(=S)NCC3CCCO3)CC2)cc1OC (configuration not stated)	-10%	-14%
COc1cccc(C(C)(O)c2nc(-c3cccs3)cs2)c1 (configuration not stated)	-11%	6%
CCOC(=O)Nc1ccc(OC)c([N+](=O)[O-])c1	-12%	-7%
CC(C)(C)NC(=O)CN1CCC(NC(=O)C23CC4CC(CC(C4)C2)C3)CC1	?	-14%
CCCOc1cccc(-c2nnc(N)s2)c1	-23%	-13%
COc1ccc(C2=CC(=O)OC(C)(c3ccccc3)O2)cc1 (configuration not stated)	-26%	-12%
CN(C)c1cccc(C(=O)Nc2ccc3nc4n(c(=O)c3c2)CCCCC4)c1	i	-24%

# Part of the list above in a different format.
SMILES: COc1ccc(-c2nc(CSc3nnc(C)n4c3cc3sccc34)c(C)o2)cc1
  VACV mCherry inh = -5% | Vaccinia Venus = -3%
SMILES: OCCNC(=S)Nc1ccc(Cl)c(Cl)c1
  VACV mCherry inh = ? | Vaccinia Venus = -24%

# New compounds follow:
structure	VACV mCherry inh	Vaccinia Venus
CC(C)(Oc1ccc(Cl)cc1)C(=O)OCC(=O)NCCc1ccccc1	i	-11%
Cc1cc(O)ccc1N/C=C/c1onc(C)c1[N+](=O)[O-]	?	-4%
Cc1cccn2c(=O)cc(COc3cccc(NC(=O)c4cccc(Cl)c4)c3)nc12	?	-23%
O=C(Cc1ccccc1)Nc1ccc(C(=O)O)cc1	-3%	7%
CN(C)CCCNc1cc(C(C)(C)C)nc2c(-c3ccc(Cl)cc3)cnn12	i[7.34 µM]	-5%[7.34 µM]
Oc1c(C(Nc2cccnc2)c2ccccc2F)ccc2cccnc12 (configuration not stated)	10µM*	?
CCOc1cc(C2NCc3ccccc3-n3cccc32)ccc1O (configuration not stated)	?	-29%
CCC(CC)C(=O)N1CCc2cc(OC)c(OC)cc2C1COc1ccc2c(C)cc(=O)oc2c1 (configuration not stated)	-8%	-5%
Cc1ccc(OS(=O)(=O)c2ccc(-c3csc(C)n3)s2)c(C)c1	-21%	-14%
COCCNCc1ccc(C(C)C)cc1	i	-10%
C[C@H](NC(=O)c1[nH]cnc1C(=O)Nc1cccc(Cl)c1)c1ccccc1	-19%	?
OC(CN1CC=C(c2ccccc2)CC1)c1ccccc1 (configuration not stated)	-25%	-5%
C[C@H](CO)N1C[C@H](C)[C@@H](CN(C)S(=O)(=O)c2ccccc2)OCc2cn(nn2)CCCC1=O	?	-9%
CC(=O)c1cccc(Nc2cc(C)nc3c(C)cc(C)cc23)c1	-30%	-27%
O=C(NC(N1CCOCC1)C(Cl)(Cl)Cl)c1ccc(Br)cc1 (configuration not stated)	-13%	-2%
Cc1ccc(N(Cc2cc3ccccc3[nH]c2=O)S(=O)(=O)c2ccccc2)cc1	-11%	-23%
CN(C(=O)CN(CCO)CC(=O)N(C)C(C)(C)Cc1ccccc1)C(C)(C)Cc1ccccc1	-4%&-7%	-24%&-21%
COc1ccc(CC(=O)O/N=C(\N)Cc2cccc3ccccc23)cc1OC	i	-3%
CCN(C(=O)C1CCN(S(=O)(=O)c2cccc3nonc23)CC1)c1ccccc1	i	8%
CSc1nc(N2CCOCC2)c2c3c(sc2n1)CCCC3	.	-16%
COc1cccc(CNc2nccn(-c3ccc(OC)c(OC)c3)c2=O)c1	-14%	-10%
COC(=O)c1ccc(CN2CCc3ccccc32)cc1	-16%	-10%
Cc1ccccc1CC(=O)Nc1cc(C(C)(C)C)on1	-5%	-13%
O=[N+]([O-])c1ccc2c(c1)CO[C@@]21O[C@H](CCO)C[C@H](O)[C@H]1O	-4%	-6%
COC(=O)c1sc(NC(=O)CSc2nnnn2-c2cccc(OC)c2)nc1C	-24%	-20%
O=C(NCCC(=O)N1CCC2(CC1)NCCc1[nH]cnc12)c1cccc(Cl)c1	-2%	-9%
FC(F)(F)c1cc(CO[C@@H]2CCCN[C@@H]2c2ccccc2)cc(C(F)(F)F)c1	-13%	-24%
CCOc1ncccc1C(=O)N(CC)CC(=O)NCc1ccc(Cl)cc1	-1%	-6%
COc1cccc(CN2C(=O)c3ccccc3C2C(=O)NCCc2ccccc2)c1 (configuration not stated)	-7%	3%
COc1ccc(OC)c(NC(=O)Cc2ccc(NC3=NC4CS(=O)(=O)CC4S3)cc2)c1 (configuration not stated)	8%	-4%

# In the list so far, 2 contain bromine.
structure	VACV mCherry inh	Vaccinia Venus
CN(C)c1ccc(-c2nc3ccccn3c2/N=C/c2ccc(Br)cc2)cc1	-20%	-10%
O=C(NC(N1CCOCC1)C(Cl)(Cl)Cl)c1ccc(Br)cc1 (configuration not stated)	-13%	-2%

# 2 of the compounds above, with each value named.
SMILES: CCN(C(=O)C1CCN(S(=O)(=O)c2cccc3nonc23)CC1)c1ccccc1
  VACV mCherry inh = i
  Vaccinia Venus = 8%
SMILES: CSc1nc(N2CCOCC2)c2c3c(sc2n1)CCCC3
  VACV mCherry inh = .
  Vaccinia Venus = -16%

# Other compounds follow:
structure	VACV mCherry inh	Vaccinia Venus
Nc1ncnc2c1ncn2C1OC(COP(=O)(O)O)C(O)C1O (configuration not stated)	-12%	-4%&6%
Cc1cccc(NC(=S)NCCO)c1C	i	-5%
COC(=O)CCC(=O)OC1(C)C(=O)C=C2C=C3CCCN3C=C2C1=O (configuration not stated)	-10%	1%
CCOC(=O)c1sc(NC(=O)CCCCCN2C(=O)c3cccc4cccc(c34)C2=O)nc1C	-16%	-10%
Cc1ccc(CCNC(=O)CCS(=O)(=O)c2cc3c(cc2C)NC(=O)CO3)cc1	-6%	-14%&-15%
Clc1ccc(OCCSCc2nc3ccccc3[nH]2)cc1	.	?
COC(=O)CCC(=O)Nc1ccc(N=Nc2ccccc2)cc1	-2%	-12%
COCOCCn1cc(CN2CCS(=O)(=O)N(Cc3ccc(-c4ccc(Cl)c(Cl)c4)cc3)C(C)C2=O)nn1 (configuration not stated)	?	13µM*
COCc1cc([C@@H]2C[C@H]3CN(c4ccccc4)C(=O)[C@]34CCCN24)ccc1OC	-8%	-16%
CCCNC(=O)CSc1nnc(-c2ccco2)n1C	-7%	-6%
Cn1c(SCC(=O)c2ccc(F)cc2)nnc1-c1ccccc1N	-6%	0%
CC(C)[C@H](NC(=O)c1ccccc1F)C(=O)Nc1cccc(S(=O)(=O)N2CCOCC2)c1	i	10%
CC(=O)c1c(N)[nH]c(-c2ccccc2)nc1=S	.	-8%
O=c1ccc(Oc2nc(N3CCOCC3)nc(N3CCOCC3)n2)n[nH]1	-10%	-2%
CCOc1ccc2[nH]c(S(=O)(=O)CC)nc2c1Cl	-17%	-6%
CCOc1ccccc1N1CCN(C(=O)CCNS(=O)(=O)c2ccccc2F)CC1	-1%	-7%
Cn1cnnc1SCC(=O)NCCC(c1ccccc1)c1ccccc1	.	22%
O=C1CC(N2CCN(C3CC(=O)N(CCc4ccccc4)C3=O)CC2)C(=O)N1CCc1ccccc1 (configuration not stated)	i	-2%
CCOC(=O)C1(C/C(C)=N/NC(N)=O)CC(C)OC1=O (configuration not stated)	-8%	-10%
CCOc1ccc(NC(=O)c2sc3nc4c(cc3c2N)CCCCCC4)cc1	-13%[7.34 µM]	-11%[7.34 µM]
CCOc1ccc2nc(Cl)c(C3CC(c4ccc(C)cc4)=NN3C(=O)CCCC(=O)O)cc2c1 (configuration not stated)	1%	-3%
COc1ccc(C(=O)N/C(=C\c2cn(C)c3ccccc23)C(=O)OCC(C)C)cc1	-10%	23%
CCCS(=O)(=O)N1CCCC(C(=O)N2CCOCC2)C1 (configuration not stated)	-14%	-3%
COc1ccccc1NS(=O)(=O)c1cc2c(cc1C)NC(=O)CO2	i	-6%
CC1(C(=O)NS(=O)(=O)c2ccc(Br)cc2)CCN1C(=O)Cc1ccsc1 (configuration not stated)	-8%	12%
Cc1ccc(NC(=O)CN(c2ccccc2)S(=O)(=O)N(C)C)cc1Cl	-16%	4%
O=C(NCc1ccccc1)c1ccc([N+](=O)[O-])cc1	17%	6%
Cc1cc(C=O)c(C)n1-c1ccc2c(c1)OCO2	?	-12%
CCCOc1cc(C)nc(-c2ccccc2O)n1	.	-5%
CCOC(=O)c1sc(NC(=O)CSc2nnnn2-c2ccc(C)c(C)c2)nc1C	.	-3%
Cc1cc(C)n(CC(=O)N2CCCC(N3CCN(c4cccc(C(F)(F)F)c4)CC3)C2)n1 (configuration not stated)	-17%	-21%
O=C(O)c1cc(-c2cccnc2)nn1-c1ccccn1	-7%	2%
CC(C)OCCCNC(=S)N1CCC(C(=O)c2ccc(Cl)cc2)CC1	?	-24%
CCCC(=O)N1c2ccccc2C(=C2SC(C(=O)OC)=C(C(=O)OC)S2)C(=S)C1(C)C	?	-12%
CN(CCCNC(=O)CSc1cc(=O)n(C)c2ccc(Cl)cc12)Cc1ccccc1	-17%	?
COC(=O)c1ccc2c(c1)N(Cc1ccccc1F)C(=O)c1ccccc1S2=O (configuration not stated)	12%	-4%
COC(=O)[C@]1(C)N[C@H](CN(C)C(C)=O)[C@@H]2C(=O)N(C)C(=O)[C@@H]21	-5%	7%
COc1ccc(S(=O)(=O)Nc2cccc(S(=O)(=O)N3CCCCCC3)c2)cc1	-14%	-7%
O=C(NNc1ccc([N+](=O)[O-])cc1)C1CC1c1ccccc1 (configuration not stated)	-27%	-14%
CCOC(=O)N1CCC2(CC1)OC(=O)C(C)=C2C(=O)NCc1ccc(C)cc1	-24%	-24%
CC(=O)Nc1nc2cccc([N+](=O)[O-])c2s1	i	-15%
CN(c1cccc(NS(=O)(=O)c2cccc([N+](=O)[O-])c2)c1)S(C)(=O)=O	-11%	-9%
COc1cc(C2NC(=O)c3c(sc4c3CCN(C)C4)N2)cc(OC)c1OC (configuration not stated)	-19%	0%
CC(=O)c1cccc(-c2cnc3c(NC=O)cc(-c4ccccc4Oc4ccccc4)cn23)c1	-27%	?
COc1cc(/C=N/Nc2ccccc2[N+](=O)[O-])ccc1OC(=O)c1ccccc1F	i	-8%
Clc1nnc2c3ccccc3ccn12	3%	2%
CCS(=O)(=O)N1CCC(C(=O)NCc2cccnc2)CC1	i	-7%
Cc1cc(Oc2ccccc2)nc(SCC(N)=O)n1	-18%	1%
CCOC(=O)c1ccc(S(=O)(=O)N2CCN(c3nc(-c4ccccc4)nc4ccccc34)CC2)cc1	-7%	-15%
COc1cccc(OCCNC(=O)c2cc([N+](=O)[O-])cc([N+](=O)[O-])c2)c1	-16%	-23%
CC(C)(C)OC(=O)[C@H](Cc1ccccc1)NC(=O)c1nc[nH]c1C(=O)NC1CCN(C(=O)OC(C)(C)C)CC1	?	?
Cc1ccc(NC(=O)Cn2c(=O)c3ccc(Cl)cc3n3nncc23)cc1	6%	1%
Cc1cccc(NC(=O)c2ccc(Cl)nc2)n1	-11%	-4%

# Assay outcomes: PubChem BioAssay, National Center for Advancing Translational Sciences (NCATS)
